Source: PubChem (National Center for Advancing Translational Sciences (NCATS))
Rango complex inh – Rango-importin beta binding inhibition; hit rate 0.031% among 340,000; Potency, µM (doses to about 92.2 µM), inactives show at the top dose inhibition of complex formation; Q14974; Rango CFP/YFP FRET sensor + importin beta, 45 min; active = rising FRET ratio curve, often small or poorly fitted; inconclusive = mostly compound fluorescence or quenching in the first reads; inactive = flat curves in all reads;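 also: potency is read from the fitted curve at half-maximal effect; 0% = DMSO wells and 100% = buffer wells lacking importin beta; nearly all actives have a fitted effect of over 15% in size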
Target sequence (Q14974 whole entry, looked up): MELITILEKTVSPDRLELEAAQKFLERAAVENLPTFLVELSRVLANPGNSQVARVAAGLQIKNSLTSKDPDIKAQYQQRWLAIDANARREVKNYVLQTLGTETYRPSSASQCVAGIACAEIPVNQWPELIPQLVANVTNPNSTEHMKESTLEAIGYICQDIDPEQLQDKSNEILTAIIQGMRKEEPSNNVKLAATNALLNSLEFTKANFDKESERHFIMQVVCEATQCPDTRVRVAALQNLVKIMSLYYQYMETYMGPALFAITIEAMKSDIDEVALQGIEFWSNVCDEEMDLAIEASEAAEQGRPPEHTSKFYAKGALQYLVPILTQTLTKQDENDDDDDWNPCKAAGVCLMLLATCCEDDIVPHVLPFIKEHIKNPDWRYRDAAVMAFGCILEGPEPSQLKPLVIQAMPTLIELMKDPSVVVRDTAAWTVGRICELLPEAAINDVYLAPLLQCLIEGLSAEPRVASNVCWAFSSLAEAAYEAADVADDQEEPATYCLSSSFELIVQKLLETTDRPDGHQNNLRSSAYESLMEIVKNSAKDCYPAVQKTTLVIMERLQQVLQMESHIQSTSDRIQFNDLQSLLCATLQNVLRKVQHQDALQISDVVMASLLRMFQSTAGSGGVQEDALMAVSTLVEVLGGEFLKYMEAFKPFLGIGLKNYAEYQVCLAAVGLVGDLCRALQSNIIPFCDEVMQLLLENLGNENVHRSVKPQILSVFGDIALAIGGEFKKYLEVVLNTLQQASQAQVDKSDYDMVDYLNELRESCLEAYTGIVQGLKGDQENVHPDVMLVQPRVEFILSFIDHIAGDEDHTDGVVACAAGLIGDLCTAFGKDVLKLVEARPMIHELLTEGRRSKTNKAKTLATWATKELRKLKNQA
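FRET biosensor Rango (snurportin 1 IBB between N-terminal EYFP and C-terminal Cerulean), 50 nM in PBS/1 mM DTT/0.02% Tween-20/0.1% BSA, preincubated 5 min RT with compound; 0.125 microM importin beta added, 45 min RT, CFP/YFP FRET ratio read.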
GLA inh pH 4.5 – alpha-galactosidase A (human) inhibition, pH 4.5 | 230,000 tested, under 10 active | activity change, negative = inhibition, % at 105 µM | P06280 | purified enzyme, 4-MU-alpha-Gal fluorescence, pH 4.5; inconclusive = small, poorly fitted or top-dose-only inhibition, or a rising curve; inactive = flat fitted curve, though single readings scatter; no compound was filed as active;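 also: 0% = full activity with enzyme and -100% = basal without enzyme; dose as in the result columns while the protocol names 77 µM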
miR-21 reporter – raises the signal of a miR-21 reporter; HeLa miR-21 FLuc reporter, luciferase, 48 h; Potency, µM (doses to about 38.3 µM), for inactives: at the highest dose reporter change, positive = more light; 340,000 tested, under 10 active; active = well fitted rising curve with a large enough effect; inconclusive = small, poorly fitted or top-dose-only effect; inactive = no such curve, though single readings can be large or run the other way;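 also: % of control where 0% means no effect; miR-21 action dims this reporter so a rising signal means less miR-21 action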
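Using DMEM plus 10% FBS, HeLa miR-21-FLuc cells are incubated with test compounds (final up to about 40uM) for 48 hours; firefly luciferase signal is then imaged following reagent-mediated lysis.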
Rango dissoc inh – inhibitors of RanGTP-induced Rango-importin beta complex dissociation; Biochemical FRET Rango-importin beta, RanGTP-induced dissociation; hit rate 0.071% among 340,000; Potency, µM (highest dose often 46.1 µM), without a hit: at the top dose activity change, negative = inhibition; O95149+P62826; AID 540253; active means falling FRET ratio curve, often poorly fitted, with flat reads before Ran was added; inconclusive means other falling curves, or compound fluorescence or quenching; inactive means flat or rising ratio curve;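 also: potency is read from the fitted curve at half-maximal effect; % of control where 0% means no effect; nearly all actives have a fitted effect of over 45% in size; -100% = wells without RanGTP and RCC1; the record marks most hits as doubtful in a second field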
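Two FRET readings bracket the reaction: one 5 min after compound meets Rango–importin beta, another 45 min after RanGTP-RCC1 (0.6 uM Ran, 0.2 uM RCC1, 2 mM GTP) is added. Only the second defines inhibition.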
Starred values were filed as active, the others as inactive; ? = inconclusive; / = not tested or not shown; & = joins results of further samples; [ ] = remark or other dose.

The line under a structure holds: Rango complex inh	GLA inh pH 4.5	miR-21 reporter	Rango dissoc inh
Cc1cccc(NC(=O)CCn2cnnn2)c1
    -1.5%	-7	2%&-9%	15%
O=C1CC(c2cccc(Br)c2)C2=C(CCCC2=O)N1 (centres undefined)
    -11%	6	-4%	-18%
Cc1ccccc1C(=O)NCC(=O)NNC(=S)NC(=O)c1ccccc1
    0.7%	-4	-9%	3%
CCOc1ccc(CN2CCN(CCCn3cccn3)CC2CCO)cc1 (centres undefined)
    0.6%	2	1%	10%
CN(C)CCNc1oc(COc2ccc(Cl)cc2)nc1C#N
    0.6%	3	-3%	18%
COc1ccc(CNC(=O)C2CCN(S(=O)(=O)c3cccc4nonc34)CC2)cc1
    2.4%	/	-5%	-1%
Cc1cccc(C(=O)NNC(=O)c2ccc3ccccc3c2)c1
    7.3%	/	/	0%
COc1ccc(OC)c(-c2cc(C(=O)N3CCc4ccccc4C3)no2)c1
    ?	3	-25%	-22%
Cc1ccc(Nc2cc(C(=O)NCCCN3CCOCC3)c3ccccc3n2)c(C)c1
    -3.1%	-6	4%	-5%
COc1ccc(/C(=C/Nc2cccc(Br)c2)C(C)=O)cc1OC
    -1.5%	-14	-11%	12%
CCOC(=O)c1c(C)[nH]c(NC(=O)NNC(=O)c2ccccc2Cl)c1C
    -4.4%	/	/	?
CCOC(=O)N1CCN(CC(=O)n2c(C)c(C)c3ccccc32)CC1
    -2.6%	7	-12%	3%
Cc1[nH]nc2c1C(c1cn[nH]c1-c1ccc(F)cc1)C(C#N)=C(N)O2 (centres undefined)
    1.4%	6	2%	-18%
O=C(Nc1cccc(Cl)c1N1CCOCC1)c1cccnc1Cl
    -1.3%	3	1%	1%
COc1cccc(C2c3[nH]c4ccccc4c3CCN2Cc2ncc[nH]2)c1 (centres undefined)
    ?	2	-13%	-20%
O=C(NCc1ccccn1)Nc1cccc(F)c1
    0.3%	/	-19%	9%
CCOc1ccccc1OCC(=O)Nc1ccc(S(=O)(=O)Nc2nc(C)cc(C)n2)cc1
    -0.2%	8	-20%	-6%
O=P(c1ccccc1)(c1ccccc1)C(O)c1ccco1 (centres undefined)
    2.0%	-10	3%	-3%
COc1cc(C(=O)Nc2ccc3c(c2)N(C(=O)CN2CCN(C)CC2)c2ccccc2CC3)cc(OC)c1OC
    -0.1%	-3	13%	7%
Cc1[nH]c2c(C)cccc2c1CCNC(=O)C1CCCCC1C(=O)OCC(F)(F)F (centres undefined)
    -6.0%	-7	-8%	-19%
CC(CNC(=O)c1ccccc1Cl)NC(=O)c1ccccc1Cl (centres undefined)
    2.1%	/	/	-9%
COC(=O)C(Cc1ccccc1)NC(=O)C(CC(C)C)NC(=O)OC(C)(C)C (centres undefined)
    -0.1%	-2	0%	3%
CCCn1cc(SCC(=O)NCC2CCCO2)c2ccccc21 (centres undefined)
    0.3%	3	-35%	?
CCOP(=O)(c1ccccc1)C1(C#N)CC1 (centres undefined)
    -0.7%	-2	-1%	-24%
COc1cc(OC)cc(-n2nc(C(=O)NCCCN3CCOCC3)c3ccccc3c2=O)c1
    0.2%	-4	-1%	0%
O=C(Nc1ccccc1N1CCOCC1)c1cc(=O)[nH]c2ccccc12
    -0.2%	/	/	4%
c1ccc(OCc2nnnn2-c2ccccc2)cc1
    -0.9%	-1	-2%	1%
CCOc1cc(C2C(C(=O)c3ccco3)=C(O)C(=O)N2CC2CCCO2)ccc1O (centres undefined)
    -1.7%	/	4%	7%
CCOC(=O)/C(=C\c1ccccc1)C(=O)CCN1CCOCC1
    -0.6%	/	/	-14%
Cc1ccc(C(=O)Nc2cccc(C(F)(F)F)c2)cc1Nc1cncnc1
    4.9%	/	-9%	0%

4 compounds picked at random from the list so far:
The line under a structure holds: Rango complex inh	GLA inh pH 4.5	miR-21 reporter	Rango dissoc inh
CCOC(=O)N1CCN(CC(=O)n2c(C)c(C)c3ccccc32)CC1
    -2.6%	7	-12%	3%
Cc1cccc(C(=O)NNC(=O)c2ccc3ccccc3c2)c1
    7.3%	/	/	0%
CN(C)CCNc1oc(COc2ccc(Cl)cc2)nc1C#N
    0.6%	3	-3%	18%
O=C(NCc1ccccn1)Nc1cccc(F)c1
    0.3%	/	-19%	9%

(more compounds)
The line under a structure holds: Rango complex inh	GLA inh pH 4.5	miR-21 reporter	Rango dissoc inh
CSc1ccccc1NC(=O)c1cc(C)on1
    -3.0%	3	-14%	0%
O=C(CCCN1C(=O)c2ccccc2C1=O)OC1CSCC1NC(=O)c1ccccc1 (centres undefined)
    -0.6%	7	0%	-11%
CCN1C(=O)/C(=C/c2ccc(OCc3ccc(C(=O)O)cc3)c(Cl)c2)NC1=S
    ?	/	-4%	?
Cc1cc2n(n1)C(c1ccccc1)CC(c1ccc(Br)cc1)=N2 (centres undefined)
    ?	0	-56%	?
O=C(NNC(=O)c1csc(N2CCOCC2)n1)c1cccnc1
    -3.4%	/	/	9%
CN(C)CCCN=C(NO)c1ccc(Cl)cc1Cl
    -0.4%	4	-7%	-5%
COc1ccc(/C=N\NC(=O)C2C(=O)NCC2c2ccccc2)cc1O (centres undefined)
    -1.5%	9	-3%	-4%
O=C(Nc1ccccc1C(F)(F)F)N1CCN(c2ccccn2)CC1
    ?	4	-8%	-10%
Cc1cc(C)n(-c2cccc(Cl)c2C#N)n1
    2.1%	3	-3%	-21%
COc1ccc(S(=O)(=O)N2CCCC2C(=O)NCC(=O)Nc2cccc(Cl)c2C)cc1 (centres undefined)
    2.7%	/	0%	1%
O=C(Cc1ccccc1)Nc1ccc(NC(=O)C2CCCCC2)nc1
    -1.3%	-13	29%	0%
CC(=O)Nc1ccc(C(=O)OCC(=O)Nc2ccccc2F)cc1
    -4.9%	5	0%	-18%
COc1cccc(-c2nn(-c3ccccc3)cc2/C=C(\C#N)C(=O)NCCCn2ccnc2)c1
    2.2%	0	-25%	2%
CC(C)C[C@@]12C(=O)N(c3cccc(Br)c3)C(=O)N1[C@H](c1ccc(Cl)cc1)[C@@H]1C(=O)N(C3CCCCC3)C(=O)[C@@H]12
    -4.1%	/	/	0%
COc1ccc(-c2nnc(SCc3ccccc3F)o2)cc1
    -1.3%	8	-47%	-3%
Cc1cccc(S(=O)(=O)N2CCn3cccc3C2C)c1 (centres undefined)
    ?	/	/	-12%
O=C(CCNS(=O)(=O)c1ccc(Br)cc1)Nc1cccc(F)c1
    -2.1%	/	3%	-13%
C=CCN(C(=O)CCC(=O)Nc1cc(C)on1)C(C(=O)NC1CCCC1)c1ccc(CC)cc1 (centres undefined)
    -0.6%	/	7%	-4%
Cc1ccccc1OCc1nnc(SCC(=O)N2CCc3ccccc32)n1C
    -3.3%	-10	-4%	-8%
COc1ccccc1NC(C#N)c1ccccc1OCc1ccccc1 (centres undefined)
    -2.1%	2	3%	4%
N/C(=N\OC(=O)c1ccc(F)cc1)c1nonc1N
    -2.8%	-1	-22%	2%
O=C(Cc1ccccc1[N+](=O)[O-])NCCSCc1c(F)cccc1Cl
    1.0%	-3	-33%	-12%
N#Cc1nc(-c2ccc(OCc3ccccc3)cc2)oc1N1CCC(C(N)=O)CC1
    0.4%	2	-5%	2%
NNC(=O)CCN1CCN(C(c2ccccc2)c2ccccc2)CC1
    -13%	-2	0%	0%
COc1ccc(Cc2nnc(NC(=O)Nc3ccccc3F)s2)cc1OC
    0.6%	/	8%	-1%
Cc1cccc(N2CCN(CC(=O)NCc3ccc(Cl)cc3)CC2)c1C
    -0.2%	/	3%	-14%
CNS(=O)(=O)c1cccc(C(=O)OCC(=O)N2CCN(C(=O)c3ccco3)CC2)c1
    0.1%	/	/	-2%
O=C(c1ccc(Br)cc1)N1CCN(S(=O)(=O)c2ccccc2)CC1
    -1.8%	8	0%	34%
CN(C)S(=O)(=O)c1cccc(NC(=O)CN(CCO)CC(=O)Nc2cccc(S(=O)(=O)N(C)C)c2)c1
    -0.3%	/	1%	?
CC(C)c1ccc(C2C3=C(CC(C)(C)CC3=O)NC3=C2C(=O)c2ccccc23)cc1 (centres undefined)
    -3.7%	5	?	5%
O=C(Nc1ccccc1N1CCN(C(=O)c2ccc(Cl)cc2)CC1)c1cc2ccccc2o1
    -0.9%	-9	-4%	18%
C=CCC[C@@H](Cc1ccc(F)cc1)C(=O)OC[C@@H](NC(=O)[C@@H](CC=C)CC(=O)N[C@H](CO)Cc1ccccc1)C(C)(C)C
    6.5%	/	/	-18%
COCCCNC(=O)c1ccc(Cn2c(=O)c3ccccc3n(Cc3ccccc3C#N)c2=O)cc1
    0.3%	-6	21%	3%
CN(Cc1cccs1)C(=O)CCc1c[nH]c2ccccc12
    0.9%	-18	-31%	-9%
CC(C)[C@H](NC(=O)C1CC(=O)N(c2ccc3c(c2)OCCO3)C1)C(=O)NC1CCCC1 (some centres undefined)
    -0.6%	/	-1%	-9%
CCC(=O)N(Cc1ccc(S(N)(=O)=O)cc1)C1CC(=O)N(c2ccc(OC)cc2)C1=O (centres undefined)
    -5.3%	3	-8%	-6%
Cc1c(C)n(CCN(C)C)c2ccc(C(=O)OCCN(C)C)cc12
    -2.7%	/	7%	-2%
CCc1c(C)c2ccc(OCC(=O)NCC3CCC(C(=O)O)CC3)cc2oc1=O (centres undefined)
    -0.9%	/	1%	1%
C/C(=N/N=C1\SCC(=O)N1c1ccccc1)c1ccc(C)cc1
    ?	-1	-1%	-11%
COc1ccc(Nc2cc(C(=O)NCc3cccnc3)c3ccccc3n2)c(OC)c1
    /	-3[21.1 µM]	-4%	/
COc1cccc2[nH]c3c(=O)n(CCCN4CCOCC4)cnc3c12
    9.4%	4	1%	20%
Cc1ccc(Cc2cc(C)n[nH]c2=O)cc1
    -1.8%	5	-4%	-4%
Cc1cccc(-c2nsc(SCC(=O)NCc3ccco3)n2)c1
    -2.9%	-13	-27%	-4%
Cn1nc(C(F)(F)F)c(/C=N/OC(=O)c2ccccc2)c1Cl
    -2.5%	4	0%	-6%
CC(=O)Nc1ccc(NC(=O)C(C)n2c3ccccc3c3nc(=O)cc(C)n32)cc1 (centres undefined)
    -2.3%	-3[21.1 µM]	-3%	-5%
O=C(COC(=O)c1ccc(Cl)c(S(=O)(=O)N2CCc3ccccc3C2)c1)Nc1ncc(Cl)cc1Cl
    -2.0%	-4	-1%	-8%
COc1ccc(CN2C(=O)CNC2=S)cc1
    0.5%	/	-3%	3%
CC(C)(C)C(=O)COC(=O)c1ccccc1O
    0.2%	-5	3%	6%
Cn1c(=O)n(C)c2cc([N+](=O)[O-])c(N3CCN(C(=O)c4ccccc4Cl)CC3)cc21
    -2.9%	-6	21%	-6%
O=C(c1ccc(Br)o1)N1N=C(c2ccc(Cl)cc2)CC1c1ccco1 (centres undefined)
    3.4%	/	-14%	10%
COc1ccc(C(=O)NCCS(=O)(=O)NCc2cccs2)cc1
    -6.0%	/	/	-1%
O=C(O)C#Cc1cccc2ccccc12
    -0.8%	-7	-2%	-19%
COCCNC(=O)c1onc(CSc2cc(C)cc(C)c2)c1C(=O)NCCOC
    5.2%	-4	3%	-15%
Cc1ccc(/C=N/n2c(-c3ccncc3)n[nH]c2=S)s1
    -1.0%	-3	-1%	0%
CCOc1ccc2[nH]c(=O)c(CN(Cc3ccco3)C(CC)c3nnnn3Cc3ccccc3)cc2c1 (centres undefined)
    -0.1%	2	-26%	-11%

A portion of the library (hit frequency here may not be typical).
